Compound activity: PubChem, ICCB-Longwood Screening Facility, Harvard Medical School
Anaer choline gr – blocks anaerobic gram-negative growth on choline | Gram-negative bacterium anaerobic choline minimal medium, absorbance growth; active compounds read low; many inactives read as strong as hits in the columns shown | calls only | 55,000 compounds, 0.2% hits;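 active means growth z-score on choline under -2 at 7 or 20 h with little or no fall on glycerol, limits in tiers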;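 further: stock transfer was 300 nL into about 50 µL; the organism is E. coli; final concentration not given here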
Anaer choline gr early – second read-out of Anaer choline gr, no call of its own (marks repeat the call); z-score; measured here: choline growth z-score, timepoint 1;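 score of optical density at 7 h as mean of two plates; lower means less growth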
Starred values were filed as active, the others as inactive; i = inactive; & = joins results of further samples. Some of the compounds tested (hit frequency here may not be typical).

SMILES	Anaer choline gr	Anaer choline gr early
COc1ccccc1OCc1nc2c3ccccc3ncn2n1	i	0.62
CC1(C(=O)NC2CCCCC2)Cn2c(cc3ccsc32)C(=O)N1c1ccc(Cl)cc1 (stereo unspecified)	i	0.57
O=C(Nc1ccc2c(c1)nc1n2CCN(C2CCCCC2)C1)C1CCCCC1	i	-0.63
O=S(=O)(c1ccc2nc(Nc3ccc4c(c3)OCCO4)ccc2c1)N1CCCC1	i	0.67
Cc1ccc(Cc2nc(CCNS(=O)(=O)c3ccc(C)c(C)c3)n[nH]2)cc1	i	0.55
CCS(=O)(=O)c1nc2ccc(NS(=O)(=O)c3ccc(F)cc3Cl)cc2s1	i	-2
O=C(NC1CCCc2ccccc21)c1nc(Nc2ccc(F)cc2)c2ccccc2n1 (stereo unspecified)	i	0.4
O=S(=O)(c1ccc(Br)cc1)N1CC(OCc2ccc(F)cc2Cl)C1	i	2
Cc1nnc(-c2coc(S(=O)(=O)N3CCN(C)CC3)c2)o1	i	-1.2
COc1ccc(OCc2nnc3sc(-c4ccncc4)nn23)cc1	i	-0.29
Cc1ccc(Cl)cc1NC(=O)N1Cc2c(sc3c2CCN(C)C3)-n2cccc2C1C (stereo unspecified)	i	-0.14
Cc1nn(-c2nc3ccc(Br)cc3s2)c2c1C(c1ccc(C(=O)O)cc1)CC(=O)N2 (stereo unspecified)	i	-0.32
CCn1c(=O)c(N2CCC(C(=O)Nc3ccc4c(c3)OCCO4)CC2)c(C)n(-c2ccccc2)c1=O	i	-0.68
CC1CCN(C(=O)c2cn(C)cc3c(=O)n(-c4ccccc4)nc2-3)CC1	i	0.08
C[Se]CC[C@H](N)C(=O)O	i	-0.13
O=C(CCc1nc(-c2ccc(N3CCCC3)cc2)no1)N1CCN(c2ccccn2)CC1	i	0.15
COc1ccc(N2CCN(c3cc(C)nc4nc(-c5ccc(C)cc5)nn34)CC2)cc1	i	1.1
O=C(Nc1ccc(N2CCN(c3ncccn3)CC2)c(C(=O)O)c1)c1ccc(Br)cc1	i	-0.05
CCCc1cc(C(=O)N2CCCC2c2cc(C(C)C)no2)no1 (stereo unspecified)	i	0.21
O=C(CCC1CCCC1)N1CCN(c2nc3cc(Br)ccc3n3cccc23)CC1	i	0.27
CCN1C(=O)CCc2cc(NS(=O)(=O)c3ccc(C(C)(C)C)cc3)ccc21	i	1
Cc1c(CC(C)(C)C(=O)O)n(Cc2ccc(Cl)cc2)c2ccc(F)cc12	i	0.53
Cc1ccc(NC(=O)c2sc3nc(-c4ccc(F)cc4)cn3c2C)cc1Cl	i	-0.09
O=c1oc2ccccc2n1Cc1noc(-c2ccccc2Br)n1	i	0.31
O=C(Nc1ccc2c(c1)OCCO2)c1ccc(N2C(=O)CCS2(=O)=O)cc1	i	0.45
CCCN(C(=O)Nc1ccc(OC)cc1)c1nc(-c2cccc(Br)c2)cs1	i	-0.77
Cc1nn(-c2cccc(F)c2)c2sc(C(=O)Oc3ccccc3F)cc12	i	0.94
Cc1ccc(-c2nc3n(CC(=O)N4CCOCC4)c4c(c(=O)n3n2)CCC4)cc1	i	0.88
COc1ccc(Cl)cc1Nc1ncnc2c1nnn2C	i	0.25
Cc1ccnc(NC(c2cccnc2)c2cc(C)sc2NC(=O)c2ccccc2)c1 (stereo unspecified)	i	0.14
Cn1nnc2cc(C(=O)Nc3cccc(F)c3)ccc21	i	0.85
Cc1nc2ccccn2c(=O)c1NC(=O)c1c(F)cccc1F	i	-0.17
CCOc1ccccc1N(C)C(=O)Cn1cnc2onc(C)c2c1=O	i	1.1
COC(=O)c1sccc1NC(=O)CN1CCCN(Cc2ccc(OC)cc2)S1(=O)=O	i	0.04
O=c1oc2cc(S(=O)(=O)NC3CC3)ccc2n1Cc1noc(C2CC2)n1	i	-0.5
COCCn1nnc2cc(S(=O)(=O)N3CCCC3C(=O)NC3CCCCC3)ccc21 (stereo unspecified)	i	-1.4
CN1C(C)(C)CCCC1(C)C	i	0.75
COc1cc(NC(=O)N2CCCC2c2c(C)noc2C)cc(OC)c1OC (stereo unspecified)	i	-0.73
CS(=O)(=O)c1ccc(N2CC(c3nnc(NC(=O)C4CC4)o3)CC2=O)cc1 (stereo unspecified)	i	0.52
C=CCn1ccc2cc(S(=O)(=O)N3CCCN(S(=O)(=O)c4ccccc4CC)CC3)ccc21	i	0.04
CCS(=O)(=O)N1CCCN(C(=O)C(C)C)CC1	i	-0.39
CCc1ccc2[nH]cc(S(=O)(=O)c3ccc(Cl)cc3)c(=O)c2c1	i	1
CCC(=O)Nc1ccccc1CCc1nc2ccccc2[nH]1	i	-0.25
Cc1nn(C)c(C)c1S(=O)(=O)N1CCc2c(c(-c3nc(-c4ccccc4)no3)nn2C)C1	i	0.02
O=C(NC1CCN(Cc2ccccc2)CC1)C1CCN(c2ccnc(-c3ccc(F)cc3)n2)CC1	i	-0.48
O=C(Cn1c(=O)ccc2cc(S(=O)(=O)N3CCCC3)ccc21)N1CCc2ccccc2C1	i	-1.2
Cc1[nH]c(C(=O)N2CCC(CC(=O)N3CCN(c4ccccn4)CC3)CC2)c(C)c1C(=O)OC(C)C	i	0.16
CCN1C(=O)c2cc(NS(=O)(=O)c3ccc(OC)c(C)c3)ccc2Oc2ccccc21	i	-0.77
COCCCNC(=O)C1CCN(c2cc(-c3ccc(F)cc3)ncn2)CC1	i	0.14
O=C(CCCN1CCSc2ccccc21)Nc1ccc(Br)cc1F	i	1.8

Reformatted with values under each structure: entries from further up
Results follow in this order: Anaer choline gr, Anaer choline gr early
> CCS(=O)(=O)N1CCCN(C(=O)C(C)C)CC1
 : i, -0.39
> CCc1ccc2[nH]cc(S(=O)(=O)c3ccc(Cl)cc3)c(=O)c2c1
 : i, 1
> CCC(=O)Nc1ccccc1CCc1nc2ccccc2[nH]1
 : i, -0.25

Next part.
SMILES	Anaer choline gr	Anaer choline gr early
CC1c2cccn2-c2sc3c(c2CN1C(=O)NC1CCCCC1)CCN(C)C3 (stereo unspecified)	i	3.3
CCc1onc(C)c1C1CCCN1Cc1ccccc1Br (stereo unspecified)	i	-1.6
CC(C)NC(=O)c1ccc(Cl)c(-n2cnc3cccnc32)c1	i	-0.75
COc1cccc(Nc2ncc3c(n2)CCN(Cc2ccccc2F)C3)c1	i	-0.65
Cc1ccc(C)c(Nc2nc(C)cc(=O)[nH]2)c1	i	-1.3
Cc1ccc(NS(=O)(=O)c2ccc3c(c2)c(=O)n(CCC(=O)N2CCCC2)c(=O)n3C)nc1	i	-0.73
Cc1cccc(N2CCN(S(=O)(=O)c3ccc4[nH]c(=O)ccc4c3)CC2C)c1 (stereo unspecified)	i	0.47
CC(C)c1ccc(NC(=O)NC2COc3ccccc3C2)cc1 (stereo unspecified)	i	1.8
CCc1nnc(-c2cn(CC(=O)NC3CCS(=O)(=O)C3)c3ccccc23)o1 (stereo unspecified)	i	-0.18
Cc1ccc(-c2nc(CN3CCCC(C(=O)NCc4ccccn4)C3)no2)cc1 (stereo unspecified)	i	-2.1
COc1ccc(-c2nc3c4ccccc4ncn3n2)cc1	i	0.73
CCc1noc(-c2cccn2CC#N)n1	i	-0.44
O=C(Nc1ccc2c(c1)OCO2)c1cccc(Nc2cc(-c3ccc(F)cc3)ncn2)c1	i	0.92
COc1ccc(OC(=O)c2cc(-c3ccc4c(c3)OCCO4)on2)cc1	i	1.3
Cn1c(=O)c(=O)n(CC(=O)NC2CCCc3ccccc32)c2cccnc21 (stereo unspecified)	i	2.2
CC1(C(=O)NC2CCCCC2)Cn2c(cc3sccc32)C(=O)N1Cc1cccc(Cl)c1 (stereo unspecified)	i	0.68
CCc1cc(C2CCCN2S(=O)(=O)c2ccccc2C)on1 (stereo unspecified)	i	0.04
CC1CCN(c2c(-c3ccc(Cl)cc3)c(=O)c2=O)CC1	i	1.8
COC(=O)C1=C(C)NC(=O)NC1c1cn(-c2ccccc2)nc1-c1ccc(Cl)cc1 (stereo unspecified)	i	-1.4
O=S(=O)(c1cc(-c2nnc(C3CCC3)o2)co1)N1CCN(c2ccc(Cl)cc2)CC1	i	0.28

4 compounds out of the list above, sorted by the number in Anaer choline gr early, rising:
SMILES	Anaer choline gr	Anaer choline gr early
O=C(NC1CCCc2ccccc21)c1nc(Nc2ccc(F)cc2)c2ccccc2n1 (stereo unspecified)	i	0.4
CC1(C(=O)NC2CCCCC2)Cn2c(cc3ccsc32)C(=O)N1c1ccc(Cl)cc1 (stereo unspecified)	i	0.57
Cc1ccc(-c2nc3n(CC(=O)N4CCOCC4)c4c(c(=O)n3n2)CCC4)cc1	i	0.88
O=C(Nc1ccc2c(c1)OCO2)c1cccc(Nc2cc(-c3ccc(F)cc3)ncn2)c1	i	0.92

(cont.)
SMILES	Anaer choline gr	Anaer choline gr early
CCOCCCNC(=O)c1ccc(-c2nc3ccccc3n(CC(C)C)c2=O)cc1	i	0.32
CC(C)NS(=O)(=O)c1cc(-c2nnc(C3CC3)o2)cs1	i	0.53
Cc1ncc([N+](=O)[O-])n1CCO	i	0.74&-0.4&-1.1
Cc1cc(C)c2c(-n3cccc3)nn(CCCC(=O)NCc3ccccc3Cl)c2n1	i	1.1
Cc1nn(Cc2ccccc2)c(C)c1S(=O)(=O)N1CCN(C(=O)c2ccccn2)CC1	i	-0.6
Cc1ccc(C(Nc2nc(C)cc(C)n2)c2cc(C)sc2NC(=O)c2ccccc2)cc1 (stereo unspecified)	i	0.77
OC[C@H]1OC(n2cnc3c(N[C@H]4CCC[C@@H]4O)ncnc32)[C@H](O)[C@@H]1O (stereo partly specified)	i	0.82
CCSc1nsc(NC(=O)c2ccc(Cl)cc2)n1	i	-0.98
O=C(Nc1ccc2c(c1)OCO2)C1CCN(c2cc(-c3ccccc3)ncn2)CC1	i	-0.25
Cc1noc(C)c1CCNC(=O)CCCn1nc(C)c2nn(-c3ccccc3)c(-n3cccc3)c2c1=O	i	-0.58

Entries of single compounds as entered above:
Cc1ccc(C(Nc2nc(C)cc(C)n2)c2cc(C)sc2NC(=O)c2ccccc2)cc1 (stereo unspecified) as listed: Anaer choline gr = i; Anaer choline gr early = 0.77
CC(C)NS(=O)(=O)c1cc(-c2nnc(C3CC3)o2)cs1 as listed: Anaer choline gr = i; Anaer choline gr early = 0.53

Continued:
SMILES	Anaer choline gr	Anaer choline gr early
Cc1cc(NC(=O)CCc2nc(CSc3nc4cc(C)c(C)cc4[nH]3)no2)no1	i	1.4
O=C(c1cc(-c2cccc(Cl)c2)on1)N1CCOCC1	i	-0.81
Cc1ccc(Cc2nnc(-c3ccc(NC(=O)Nc4ccc(F)cc4)cc3)o2)cc1	i	0.46
CCCc1nnc2n1NC(c1ccc(C)cc1)C(C(=O)Nc1cc(C)cc(C)c1)S2 (stereo unspecified)	i	-0.28
CC(C)CCn1c(SCc2nc(-c3ccccc3)no2)nc2cc3c(cc2c1=O)OCO3	i	0.19
COc1ccc(NC(=O)C2CCN(S(=O)(=O)c3cc(-c4noc(C)n4)ccc3C)CC2)cc1Cl	i	2.4
CC12CN3CC(C)(CN(C1)C3c1cc(Br)ccc1O)C2O (stereo unspecified)	i	-0.22
Cc1ccc(S(=O)(=O)Cc2nc(-c3ccc(C(=O)NCC4CCCO4)cc3)oc2C)cc1 (stereo unspecified)	i	-0.59
Cc1ccc(NC(=O)c2sc3nc(-c4ccccc4)cn3c2C)c(C)c1	i	0.67
O=C(O)CSc1nc2c(cnn2CCO)c(=O)[nH]1	i	0.39
Cc1ccc(CNC(=O)CCn2cnc3onc(-c4cccc(F)c4)c3c2=O)cc1	i	1.1
COCCCN1CCn2c(nc3ccccc32)C1	i	-0.04
CCC(=O)Nc1ccccc1-c1nnc(SC(C)C(=O)Nc2ccccc2)[nH]c1=O (stereo unspecified)	i	-0.51
CCCn1c(SCc2nc(-c3ccc(OCC)cc3)no2)nc2cc3c(cc2c1=O)OCO3	i	0.09
COc1ccc(OC)c(NC(=O)Nc2ccc3[nH]c(=O)oc3c2)c1	i	0.17
COc1ccc2c(c1)c(-n1cccc1)c1n2CC(C)(C(=O)NC2CCCCC2)N(C2CCCC2)C1=O (stereo unspecified)	i	0.78
CCOC(=O)C1CCCN(C(=O)Cn2c(=O)c3ccccc3n3c(=S)sc(-c4cccc(F)c4)c23)C1 (stereo unspecified)	i	-0.09
CCCC(O)c1nc2ccccc2n1CCOc1cccc(C)c1 (stereo unspecified)	i	2.5
CC1CCN(C(=O)c2c[nH]c3ccccc3c2=O)CC1	i	-1.9
CCOC(=O)C1=C(CN2CCC(C)CC2)NC(=O)NC1c1ccc(C)cc1 (stereo unspecified)	i	-0.17
CC(=O)Nc1c(C)nn(-c2ccc(Cl)cc2)c1N1CCC(C(=O)NC2CCCCC2)CC1	i	-0.63
COc1ccccc1CNc1nc2c(S(=O)(=O)c3ccccc3)nnn2c2ccccc12	i	-0.76
Cc1ccc(C(=O)c2c(N)c(C(=O)Nc3ccccc3Cl)c3ccccn23)cc1	i	0.26
O=C(CCC1CCCC1)NCc1ccc2c(c1)N(C(=O)c1ccccc1)CC2	i	-0.86
O=C(NC1CCCCC1)N1CCN(c2cc(-c3ccc(F)cc3)ncn2)CC1	i	0.31
Oc1ccc(C2CNCc3sccc32)cc1O (stereo unspecified)	i	0.16
COc1ccc2c(c1)nc(CN1CCCC1)n2C	i	-0.55
O=C(NCCCN1CCCC1=O)c1ccc(CN2C(=O)C3CCCN3C(=O)c3ccccc32)cc1 (stereo unspecified)	i	-1.8
O=C(NC1CCCC1)C1CCCN(c2ncc(-c3cccc(F)c3)cn2)C1 (stereo unspecified)	i	-0.55
CCCS(=O)(=O)c1nc2ccc(NS(=O)(=O)c3cnn(CC)c3)cc2s1	i	0.11
Cc1cc(N2CCCCC2)nc(N2CCN(C(=O)C3CCCC3)CC2)n1	i	0.6
Cc1ccc(C2C3=C(CC(C)(C)CC3=O)Nc3ccccc3N2C(=O)NC2CCCC2)cc1 (stereo unspecified)	i	0.32
